# DUX4 txn inh: inhibitors of DUX4-driven ZSCAN4 reporter expression, primary screen, 293T cells, Gaussia and Italica luciferase; 293T-iDUX4 ZSCAN4-Gaussia luciferase reporter, 24 h; hits give low values; activity change, negative = inhibition, % (no concentration beside the values); actives 0.8% (n = 37,000); AID 1224904, 2016;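 active means -10% or lower and over 25 points stronger than a control reporter; inconclusive means -10% or lower with a smaller gap; inactive means above -10%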;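 further: 0% = median of neutral control wells and -100% = median of positive control wells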
# DUX4 txn inh difference: also measured in DUX4 txn inh; calls as there; Gaussia minus Italica difference, %; measured here: selective DUX4 reporter inhibition;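 worked out from the two reporters; negative = selective loss of the DUX4 reporter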
# DUX4 txn inh control: second read-out of DUX4 txn inh, no call of its own (marks repeat the call); activity change, negative = inhibition, %; measured here: Italica tet-on control reporter;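 0 = neutral control and -100 = positive control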
# Active calls of the source: *; ? = inconclusive; nt = not tested or not shown; & = joins results of further samples; ! = not confirmed by another sample. This is a subset; rates above refer to the full screens.
# The first 2 records (preview)
Molecule,DUX4 txn inh,DUX4 txn inh difference,DUX4 txn inh control
CCCNC(=O)[C@@H]1[C@@H](CO)[C@@H]2Cn3c(ccc(-c4cccc(F)c4)c3=O)[C@H]1N2Cc1ccccc1F,-5,-2,-3.0
CN(C)CC(=O)Nc1ccc2c(c1)C(=O)N(C)[C@H]1CC[C@H](CC(=O)NCc3ccccc3)O[C@@H]1CO2,1,-1,1.9

# The list itself, previewed entries included:
Molecule,DUX4 txn inh,DUX4 txn inh difference,DUX4 txn inh control
CCCNC(=O)[C@@H]1[C@@H](CO)[C@@H]2Cn3c(ccc(-c4cccc(F)c4)c3=O)[C@H]1N2Cc1ccccc1F,-5,-2,-3.0
CN(C)CC(=O)Nc1ccc2c(c1)C(=O)N(C)[C@H]1CC[C@H](CC(=O)NCc3ccccc3)O[C@@H]1CO2,1,-1,1.9
COCC#Cc1ccc2c(c1)O[C@@H](CN(C)CC1CCCCC1)[C@H](C)CN([C@@H](C)CO)S2(=O)=O,2,1,1.0
N#C[C@@H]1N[C@@H](CO)[C@H]1c1ccc(C#CC2CCCCC2)cc1,0,0,-0.1
COc1cccc(C#Cc2ccc3c(c2)[C@H]2[C@H](CCN2C(=O)c2ccccc2F)[C@@H](CO)N3)c1,14,11,2.4
O=C(N[C@H]1C=C[C@H](CC(=O)N2CCc3ccccc3C2)O[C@@H]1CO)C1CCC1,-3,1,-3.3
CCNC(=O)[C@@H]1[C@@H](CO)[C@@H]2Cn3c(ccc(-c4ccc(F)cc4)c3=O)[C@H]1N2C(C)=O,5,-1,6.1
C[C@H]1CN([C@@H](C)CO)C(=O)CCCn2cc(nn2)CO[C@H]1CN(C)Cc1cccc(O)c1,2,-10,12
OC[C@@H]1[C@@H](c2ccccc2)C2(CN(Cc3nccs3)C2)N1CCC(F)(F)F,-5,-6,1.1
O=C(C[C@@H]1CC[C@@H]2[C@H](COC[C@H](O)CN2Cc2cc(F)ccc2F)O1)NCc1ccc(Cl)cc1,?,nt,nt
C[C@@H]1CN([C@@H](C)CO)C(=O)CCCn2nncc2CO[C@@H]1CN(C)Cc1ccc(Oc2ccccc2)cc1,?,nt,nt
N#C[C@@H]1[C@@H](c2ccc(C#Cc3cccc(F)c3)cc2)[C@H](CO)N1C(=O)C1CC1,1,-5,6.3
CO[C@@H](CN(C)C(=O)C1CCOCC1)[C@@H](C)CN(C(=O)Nc1ccc(C(F)(F)F)cc1)[C@@H](C)CO,-3,1,-4.1
O=C(C[C@H]1CC[C@H]2[C@@H](COC[C@@H](O)CN2C(=O)c2ccccc2)O1)NCCCN1CCOCC1,7,-3,9.5
C[C@@H]1CN([C@H](C)CO)C(=O)CCCn2nncc2CO[C@@H]1CN(C)C(=O)Nc1cccc(C(F)(F)F)c1,-3,-5,1.5
COCCN(C[C@H]1[C@H](c2ccccc2)[C@@H](CO)N1C(C)=O)C(=O)c1cccnc1,-5,-3,-2.4
CCCNC(=O)N1[C@@H]2c3ccc(-c4ccccc4OC)c(=O)n3C[C@H]1[C@H](CO)[C@H]2C(=O)N(C)C,0,0,-0.4
O=S(=O)(NCC[C@H]1CC[C@H](NS(=O)(=O)c2cccc(Cl)c2)[C@H](CO)O1)c1cccc(F)c1,-8,-9,1.4
Cn1cnc(CCNC(=O)C[C@@H]2CC[C@@H]3[C@H](COC[C@@H](O)CN3C(=O)Nc3ccc(F)cc3)O2)c1,0,-16,16
COCC(=O)Nc1ccc2c(c1)C(=O)N(C)[C@H]1CC[C@H](CC(=O)NC3Cc4ccccc4C3)O[C@H]1CO2,2,0,2.5
CN(C)C(=O)C[C@@H]1CC[C@H]2[C@@H](COC[C@@H](O)CN2Cc2nccs2)O1,2,-3,5.8
N#Cc1cccc(-c2ccc(C3[C@@H]4CN(C(=O)Cc5ccncc5)C[C@H]3N4)cc2)c1 (some centres not stated),-26*!,-32*!,6.0*!
O=C(Nc1ccc(Cl)cc1)N1[C@@H]2CNC[C@H]1C2c1ccc(/C=C/c2ccccc2)cc1 (some centres not stated),22&21,11&13,11&8.4
C[C@H](NC(=O)C[C@H]1CC[C@@H]2[C@H](COc3ccc(NC(=O)C4CCOCC4)cc3C(=O)N2C)O1)c1ccccc1,1,0,0.3
CCCNC[C@H]1[C@@H](c2ccc(C3=CCCCC3)cc2)[C@@H](CO)N1C(=O)C1CCC1,-2,-1,-1.4
O=C(C[C@H]1CC[C@H]2[C@@H](COC[C@@H](O)CN2C(=O)c2ccccn2)O1)NC1CCC1,2,1,1.4
CO[C@@H]1CC[C@H]2CCN(C)C(=O)[C@@H](C)N(C)C(=O)c3cccc(C#N)c3OC[C@@H]1O2,-5,-2,-3.0
C/C=C/c1ccc([C@@H]2[C@@H](CO)N(Cc3ccccn3)[C@H]2CNC(=O)CC)cc1,4,5,-1.6
O=C(C[C@H]1C[C@@H]2c3cc(NC(=O)c4cccnc4)ccc3O[C@@H]2[C@H](CO)O1)NCc1ccccn1,-1,-3,2.5
Cc1noc(C)c1S(=O)(=O)Nc1ccc2c(c1)C(=O)N([C@@H](C)CO)C[C@@H](C)[C@@H](CN(C)Cc1ccc3c(c1)OCO3)O2,-1,-2,0.9
O=C(C[C@H]1CC[C@@H]2[C@H](COC[C@H](O)CN2Cc2ccc(F)cc2)O1)NCc1ccccc1Cl,-4,3,-6.3
COc1ccc2c3c([nH]c2c1)[C@@H](CO)N(C(C)=O)CC31CCN(S(=O)(=O)c2cccs2)CC1,6,-6,12
O=C(N[C@@H]1C=C[C@@H](CC(=O)N2CCC(Cc3ccccc3)CC2)O[C@@H]1CO)c1cnccn1,-4,-4,0.9
O=C(C[C@@H]1CC[C@@H]2[C@H](COC[C@H](O)CN2C(=O)Nc2ccc(Cl)cc2)O1)N1CCCCC1,9,-6,16
CO[C@@H]1CN(C)C(=O)c2cc(NC(=O)Nc3ccc(Cl)cc3)ccc2OC[C@H](C)N(C)C[C@H]1C,-9,3,-12
CC(C)CC#Cc1ccc([C@H]2[C@H](CO)N3C(=O)CN(C(=O)c4cnccn4)C[C@@H]23)cc1,6,0,6.6
O=C(C[C@H]1CC[C@H]2[C@@H](COC[C@H](O)CN2S(=O)(=O)c2ccc(F)cc2)O1)N[C@@H]1CCN(Cc2ccccc2)C1,1,4,-3.9
C[C@@H]1CN([C@H](C)CO)C(=O)Cc2cc(NC(=O)CCN3CCOCC3)ccc2O[C@H]1CN(C)Cc1ccc(C(=O)O)cc1,0,0,-0.3
O=C(C[C@H]1CC[C@@H]2[C@H](COC[C@H](O)CN2CC2CCCCC2)O1)NCc1ccc(F)cc1,-4,0,-4.7
O=C(Cc1ccccn1)N1CC2(C1)[C@H](c1ccccc1)[C@H](CO)N2C(=O)c1ccccc1,4,3,0.9
C[C@@H]1CN([C@H](C)CO)C(=O)CCCn2nncc2CO[C@@H]1CN(C)C(=O)Nc1ccc(-c2cccs2)cc1,0,2,-2.5
COCC(=O)N1CC2(C1)[C@@H](c1ccc(-c3cccc(F)c3)cc1)[C@H](CO)N2C(=O)COC,11,7,4.9
CCCNC(=O)N(C)C[C@H]1Oc2ncc(C#CC3CCCCC3)cc2C(=O)N([C@H](C)CO)C[C@H]1C,0,-2,2.4
CN1[C@@H]2c3ccc(-c4cccnc4)c(=O)n3C[C@@H]2[C@@H](CO)[C@@H]1C(=O)N1CCc2ccccc2C1,6,2,3.6
CCC(=O)N1C[C@H](O)COC[C@@H]2O[C@@H](CC(=O)NCc3ccc(Oc4ccccc4)cc3)CC[C@H]21,-2,-3,1.3
COc1ccccc1C#Cc1ccc2c(c1)O[C@@H](CN(C)Cc1ccncc1)[C@@H](C)CN([C@@H](C)CO)S2(=O)=O,1,3,-2.2
O=C(C[C@H]1CC[C@@H]2[C@H](COC[C@H](O)CN2C(=O)c2ccccc2F)O1)N1CCN(c2ccccc2)CC1,-2,-1,-1.4
COc1ccccc1NC(=O)N(C)C[C@@H]1OCc2ccccc2-c2c(n(C)c3ccccc23)C(=O)N([C@H](C)CO)C[C@@H]1C,?,nt,nt
CC(C)[C@@H]1CC=CC[C@@H](C)Oc2ccccc2C(=O)N(C)[C@H](Cc2ccccc2)C(=O)N1 (mixture of isomers),6,5,1.2
O=C(CN1CCOCC1)N1CC[C@@H]2[C@H]1c1cc(-c3ccc(F)cc3)ccc1N[C@@H]2CO,15,8,7.1

# New compounds follow.
# Every second line gives: DUX4 txn inh | DUX4 txn inh difference | DUX4 txn inh control
- CO[C@@H]1CN(C)C(=O)c2cc(NC(=O)c3ccno3)ccc2OC[C@H](C)NC[C@@H]1C
→ 0 | -5 | 5.3
- CC=Cc1ccc2n(c1=O)C[C@@H]1[C@@H](CO)[C@H](C(=O)NCCc3ccncc3)N[C@H]21 (mixture of isomers)
→ 1 | -1 | 1.2
- CC(C)c1cn(CC[C@H]2CC[C@H](NC(=O)Nc3cc(Cl)cc(Cl)c3)[C@H](CO)O2)nn1
→ 5 | 3 | 2.0
- C[C@@H]1CN([C@H](C)CO)C(=O)CCCn2cc(nn2)CO[C@@H]1CN(C)Cc1ccccc1C(=O)O
→ -1 | -4 | 2.2
- CCNC(=O)[C@H]1[C@H](CO)[C@H]2Cn3c(ccc(-c4ccccc4)c3=O)[C@@H]1N2Cc1cccnc1
→ -2 | -10 | 7.6
- CCCC(=O)N1CC2(CN[C@H](CO)c3c2c2ccc(OC)cc2n3C)C1
→ 10 | 6 | 3.9
- COc1ccccc1CN(C)C[C@@H]1OCc2cnnn2CCCC(=O)N([C@H](C)CO)C[C@H]1C
→ 0 | -1 | 1.0
- CN(C)C(=O)[C@H]1[C@H](CO)[C@H]2Cn3c(ccc(C4=CCCC4)c3=O)[C@@H]1N2CCC(F)(F)F
→ 4 | 2 | 1.6
- Cc1ccc(S(=O)(=O)N2C[C@H](O)COC[C@H]3O[C@H](CC(=O)NCC4CCCCC4)CC[C@@H]32)cc1
→ ? | nt | nt
- C[C@H](CO)N1C[C@H](C)[C@@H](CN(C)C(=O)Nc2cc(F)ccc2F)Oc2cc(-c3cccc(F)c3)ccc2S1(=O)=O
→ 7 | 11 | -3.9
- CCCNC(=O)[C@@H]1[C@@H](CO)[C@@H]2Cn3c(ccc(-c4ccccc4)c3=O)[C@H]1N2C(=O)C1CC1
→ -2 | 0 | -1.7
- CO[C@@H]1CN(C)C(=O)c2ccc(NC(=O)NC(C)C)cc2OC[C@@H](C)N(CC2CC2)C[C@@H]1C
→ 2 | 0 | 1.5
- CCC(=O)N[C@H]1CC[C@@H](CC(=O)NCc2ccccc2F)O[C@@H]1CO
→ -2 | -3 | 1.1
- CN(C)c1ccc2c(c1)[C@H]1C[C@H](CC(=O)NCC3CC3)O[C@H](CO)[C@H]1O2
→ -1 | -3 | 1.6
- N#C[C@H]1[C@@H](c2ccccc2C2=CCCC2)[C@@H](CO)N1C(=O)CN1CCOCC1
→ 14 | 5 | 8.8
- CN1C(=O)c2cc(NC(=O)Cc3ccccc3)ccc2OC[C@@H]2O[C@@H](CC(=O)NC3CCC3)CC[C@@H]21
→ -7 | -3 | -4.7
- CCCC#Cc1ccc([C@@H]2[C@H]3CN(S(=O)(=O)c4ccccc4C)CC(=O)N3[C@H]2CO)cc1
→ ? | nt | nt
- O=S(=O)(c1ccccc1)N1CCCCN2[C@H](C1)[C@H](c1ccc(-c3ccccc3)cc1)[C@@H]2CO
→ ? | nt | nt
- CCNC(=O)C[C@H]1CC[C@H]2[C@@H](COC[C@H](O)CN2C(=O)c2cc(Cl)cc(Cl)c2)O1
→ 6 | 2 | 3.8
- O=C(c1ccccc1)N1CC2(C1)[C@@H](c1ccccc1)[C@@H](CO)N2CC1CC1
→ -6 | -1 | -5.3
- CN(C[C@@H]1N[C@H](CO)[C@H]1c1ccc(C2=CCCC2)cc1)C(=O)c1ccncc1
→ 1 | -2 | 2.5
- CCC(=O)N1[C@@H]2c3ccc(-c4cccc(F)c4)c(=O)n3C[C@@H]2[C@@H](CO)[C@@H]1C(=O)OC
→ -4 | -7 | 3.3
- COCCNC(=O)[C@@H]1[C@@H](CO)[C@@H]2Cn3c(ccc(-c4ccc(OC)cc4)c3=O)[C@H]1N2C(=O)NC(C)C
→ -2 | -6 | 3.2
- O=C(Nc1cccc(F)c1)N1CCCCN2[C@H](C1)[C@@H](c1ccc(-c3ccncc3)cc1)[C@@H]2CO
→ 7 | -2 | 8.4
- CC(=O)N(C)C[C@@H]1OCc2ccccc2-c2c(n(C)c3ccccc23)C(=O)N([C@H](C)CO)C[C@H]1C
→ 23 | 22 | 1.1

# An excerpt of these results, as labelled records:
CCC(=O)N1[C@@H]2c3ccc(-c4cccc(F)c4)c(=O)n3C[C@@H]2[C@@H](CO)[C@@H]1C(=O)OC
  DUX4 txn inh: -4	DUX4 txn inh difference: -7	DUX4 txn inh control: 3.3
Cc1ccc(S(=O)(=O)N2C[C@H](O)COC[C@H]3O[C@H](CC(=O)NCC4CCCCC4)CC[C@@H]32)cc1
  DUX4 txn inh: ?	DUX4 txn inh difference: nt	DUX4 txn inh control: nt
CN(C)CC(=O)Nc1ccc2c(c1)C(=O)N(C)[C@H]1CC[C@H](CC(=O)NCc3ccccc3)O[C@@H]1CO2
  DUX4 txn inh: 1	DUX4 txn inh difference: -1	DUX4 txn inh control: 1.9
CN(C[C@@H]1N[C@H](CO)[C@H]1c1ccc(C2=CCCC2)cc1)C(=O)c1ccncc1
  DUX4 txn inh: 1	DUX4 txn inh difference: -2	DUX4 txn inh control: 2.5

# High-throughput results from PubChem BioAssay.
